Screening data from PubChem.
GLP1R inv ag: GLP-1 receptor (human) inverse agonism; HEK293 GLP-1R CRE-luciferase, luminescence, 24 h; GLP-1R form is constitutively active; Potency, µM (titrated, usually from 38.3 µM), inactives show at the top dose activity change, negative = inhibition, hits mostly inhibitors; actives 1.6% (n = 410,000); further: potency means the concentration at half of the fitted maximal effect; on the % scale 0 is the no-effect control and ±100 the full control effect; nearly all actives have a fitted effect of over 55% in size
Target sequence (P43220 whole entry, looked up): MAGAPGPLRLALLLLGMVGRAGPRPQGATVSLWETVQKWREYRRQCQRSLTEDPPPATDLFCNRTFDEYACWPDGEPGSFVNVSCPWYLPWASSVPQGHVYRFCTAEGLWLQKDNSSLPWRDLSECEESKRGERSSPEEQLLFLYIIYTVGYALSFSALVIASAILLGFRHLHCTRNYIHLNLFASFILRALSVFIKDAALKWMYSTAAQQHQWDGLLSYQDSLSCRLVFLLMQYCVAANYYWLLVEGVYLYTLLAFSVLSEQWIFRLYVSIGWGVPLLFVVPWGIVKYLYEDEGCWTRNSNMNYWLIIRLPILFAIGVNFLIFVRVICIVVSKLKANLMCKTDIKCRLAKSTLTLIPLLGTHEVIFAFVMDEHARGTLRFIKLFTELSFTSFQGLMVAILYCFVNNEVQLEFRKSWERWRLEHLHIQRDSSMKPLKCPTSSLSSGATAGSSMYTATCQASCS
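Readout was luciferase luminescence, measured 12 min after detection reagent at room temperature. Beforehand, GLP-1R reporter HEK293 cells had sat 12 h, then received compounds for 24 hr at 37 deg C.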
EPAC1 antagonist: blocks human EPAC1 exchange factor; O95398; EPAC1 GEF assay, Rap1b-BODIPY-GDP exchange fluorescence; Potency, µM (doses to about 115 µM), for inactives: top-dose activity change, negative = inhibition, usual class: inhibitors; actives 0.14% (n = 360,000); AID 720709;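 further: potency means the concentration at half of the fitted maximal effect; plate controls were vehicle for no effect and positive control for full effect; nearly all actives have a fitted effect of over 50% in size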
IL2 activator: activators of IL-2; actives 0.065% (n = 360,000); activation, % (series mostly up to about 46 µM); AID 652025; IL-2 activation reporter assay, cell-based qHTS; stimulated with anti-CD3/CD4/CD28 beads; in transgenic mouse T cells; in the data active means activation above about 50%; inconclusive means mostly about 30% to 49%; further: 0% is about no effect
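Quantitative HTS in unstimulated transgenic mouse T cells, with memory T cells as non-tolerant control and PMA/ionomycin as tolerance-bypass control. Compound pretreatment lasted 60 minutes before 18 h bead stimulation; EGFP/DsRed fluorescence read.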
GLP1R cytotox: cytotoxicity in counter-screen for GLP-1R inverse agonists; HEK293 cAMP-luciferase reporter cells, luminescence, 24 h; AID 624418; actives 0.13% (n = 410,000); Potency, µM (titrated, usually from 38.3 µM), for the others: at the highest dose activity change, negative = inhibition, most hits filed as inhibitors;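 further: loss of luciferase light is scored as toxicity; potency means the concentration at half of the fitted maximal effect; on the % scale 0 is the no-effect control and ±100 the full control effect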
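Here, cytotoxicity is scored as loss of luminescence. The MLSMR collection was tested on cells seeded in medium containing 10% Nu serum, with a 24 hr compound exposure preceded by 12 hours of culture.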
PLK1 PBD block: inhibitors of human PLK1 polo-box domain binding. Potency, µM, without a hit: max response, negative = inhibition, hits mostly inhibitors. Plk1 PBD binding of FITC phosphopeptide, fluorescence polarization. actives 2.8% (n = 360,000). P53350; further: potency means the concentration at half of the fitted maximal effect; series mostly up to about 57 µM; on the % scale 0 is the no-effect control and ±100 the full control effect; nearly all actives have a fitted effect of over 65% in size
EPAC1 ag: activates human EPAC1 exchange factor; O95398; EPAC1 agonist qHTS, biochemical assay; response scale: 100% = response to 6.5 mM cAMP; Potency, µM (doses to about 154 µM), inactives show at the highest dose activation, hits mostly activators; actives 0.073% (n = 360,000); further: potency means the concentration at half of the fitted maximal effect; nearly all actives have a fitted effect of over 60% in size
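Read-out is the fluorescence drop as BODIPY-GDP leaves Rap1B (480 nm excitation, 540 nm emission), recorded every 5 minutes over 30 minutes. Reactions held 100 nM EPAC1, 250 nM Rap1B–BODIPY-GDP and 50 uM GDP, with 6.5 mM cAMP setting full activation.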
PTHR1 agonist: activates the human parathyroid hormone receptor PTHR1 | Q03431 | HEK293 GP2 PTHR1 cells, GloSensor cAMP luminescence, 1 h | Potency, µM (highest dose often 115 µM), for inactives: top-dose activation, most hits filed as activators | actives 0.075% (n = 410,000) | AID 743266; further: potency means the concentration at half of the fitted maximal effect; nearly all actives have a fitted effect of over 55% in size; some results filed as inactive show a strong effect at the top dose; inactives centre near -15; many of its hits are not listed in these tables
Target sequence (Q03431 whole entry, looked up): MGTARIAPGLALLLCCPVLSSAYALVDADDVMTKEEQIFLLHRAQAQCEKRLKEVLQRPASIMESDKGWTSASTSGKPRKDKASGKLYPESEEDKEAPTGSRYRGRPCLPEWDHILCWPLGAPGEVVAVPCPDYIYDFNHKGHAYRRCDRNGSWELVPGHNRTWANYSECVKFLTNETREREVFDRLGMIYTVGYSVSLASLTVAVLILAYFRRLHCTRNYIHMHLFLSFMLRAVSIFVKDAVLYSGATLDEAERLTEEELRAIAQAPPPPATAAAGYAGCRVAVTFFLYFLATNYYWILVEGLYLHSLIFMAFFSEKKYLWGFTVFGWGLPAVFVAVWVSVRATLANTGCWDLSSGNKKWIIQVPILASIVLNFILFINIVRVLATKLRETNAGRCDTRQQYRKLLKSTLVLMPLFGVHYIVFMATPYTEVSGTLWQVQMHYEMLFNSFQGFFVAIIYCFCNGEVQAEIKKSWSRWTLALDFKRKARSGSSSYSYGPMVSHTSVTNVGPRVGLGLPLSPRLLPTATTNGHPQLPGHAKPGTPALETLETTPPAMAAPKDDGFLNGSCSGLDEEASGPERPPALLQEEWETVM
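HEK-293-derived GP2 cells expressing PTHR1 and a GloSensor cAMP reporter, 3,000/well, plated overnight, given luciferin plus IBMX (each 0.5 mM as added) for 1 h at 37 °C, then compound for 1 h at 37 °C. Luminescence was read after 15 min at room temperature.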
GLP1R ag: GLP-1 receptor (human) agonism | HEK293 GLP-1R CRE-luciferase, luminescence, 4-6 h; cells express a hypersensitive GLP-1R form | Potency, µM (series often up to 45.6 µM), for inactives: at the highest dose activation, usual class: activators | actives 0.007% (n = 380,000) | AID 624172; further: potency means the concentration at half of the fitted maximal effect; % of control where 0% means no effect
Starred values were filed as active, the others as inactive; i = inactive; ? = inconclusive; / = no result given; [ ] = remark or other dose. Unless noted, the call rests on the fitted dose curve; in most records, active means well fitted curve in the direction sought with a large enough effect; inconclusive means small, poorly fitted or top-dose-only effect, or another doubt; inactive means no such curve, though single readings can be large; an effect the other way counts as inactive or inconclusive. An excerpt; rates above refer to the full screens.

Compound,GLP1R inv ag,EPAC1 antagonist,IL2 activator,GLP1R cytotox,PLK1 PBD block,EPAC1 ag,PTHR1 agonist,GLP1R ag
COCCCn1c(C(=O)NCCC2=CCCCC2)cc2c(=O)n3ccccc3nc21,28.2%,-14.1%,-3.2,8.4%,-7.2%,17.7%,-14.8%,8.7%
COc1ccc2cnnc(SCC(=O)Nc3ccccc3)c2c1OC,0.0%,-14.3%,2.0,-5.0%,-12.3%,-0.7%,-16.7%,20.0%
Cc1c(Cl)cccc1NC(=O)CSc1sc2c(O)cc(=O)[nH]c2c1C#N,2.1%,-0.9%,0.1,-10.1%,-20.3%,4.0%,i,-4.5%
O=C(CSc1nc(O)cc(=O)n1C1CCCC1)Nc1cccc(Cl)c1Cl,?,-13.8%,0.2,-1.9%,-20.6%,-11.3%,-9.3%,-3.3%
Cc1cccc(N2CC(C(=O)Nc3nnc(SCc4cccnc4)s3)CC2=O)c1 (stereo not drawn),11.0%,-27.7%,-0.6,25.8%,?,-0.9%,-2.2%,-33.8%[inhibitor]
O=C(COc1ccc2ccccc2c1)Nc1ccc(Br)cc1C(=O)O,?,?,-0.6,1.1%,?,-3.8%,-35.6%,-0.9%
CCOC(=O)CSc1nnc(NC(=O)C2CC(=O)N(c3ccc(F)cc3)C2)s1 (stereo not drawn),0.8%,-25.5%,-0.4,6.6%,-22.0%,21.1%,-16.9%,-19.9%
NC(=O)COc1ccc(C(=O)/C=C2/C(=O)Nc3ccccc32)cc1,?,-1.9%,-1.0,?,?,-1.0%,-7.1%,0.0%
COc1ccc(OCCCC(=O)Nc2nc(-c3ccccn3)cs2)cc1,?,-13.0%,-2.0,?,26.7µM*,-1.1%,-28.4%,3.0%
Cc1ccc(NC(=O)CCc2nc3sc4c(c3c(=O)[nH]2)CCCC4)nc1,11.7%,-12.9%,2.4,-1.8%,-26.5%,12.9%,-29.5%,-8.2%
Cc1cccc(NC(=O)c2ccc(S(=O)(=O)N(C)CC3CCCO3)cc2)c1C (stereo not drawn),4.4%,-10.4%,-1.1,6.9%,-0.9%,2.4%,i,-2.9%
COc1ccccc1Nc1nc2ccc(C)cc2n2cnnc12,27.3%,14.3%,0.3,10.1%,-2.7%,-9.9%,-15.6%,-5.2%
CC(=O)Nc1ccc(-c2ccnc3c2CC(C(=O)NCc2ccco2)O3)cc1 (stereo not drawn),-54.1%,-5.0%,-0.5,-6.8%,-10.0%,-2.8%,-1.6%,16.7%
COc1ccc(C(=O)c2sc(Nc3ccccc3)nc2N)cc1OC,22.6%,-19.8%,-3.3,-2.1%,0.3%,7.3%,-19.2%,?
COc1ccc(/C(O)=C2\C(=O)C(=O)N(CCN(C)C)C2c2cccc(OC)c2OC)cc1 (stereo not drawn),6.5%,-5.0%,-5.0,13.1%,-4.1%,7.2%,-2.5%,0.4%
O=C1NC(c2ccc(Br)cc2)Nc2sc3c(c21)CCC3 (stereo not drawn),8.7%,-0.2%,0.2,14.6%,?,6.3%,-1.6%,-0.4%
Cc1ccc(-c2ccnc3nc(-n4cccc4)nn23)o1,31.6%,-7.3%,-1.3,-1.0%,4.74µM*,-2.0%,-17.5%,7.8%
CCOC(=O)c1cc(C#N)c(Oc2ccc(F)cc2)nc1-c1ccccc1,?,-22.8%,1.0,-3.1%,-8.5%,18.5%,i,-0.3%
Brc1ccc2nc(-c3ccco3)c(CC3CCCCC3)n2c1,-5.7%,?,-1.1,-0.6%,?,-14.7%,i,-3.8%
CC1(OC(=O)C2CCCC2)C(=O)C=C2C=C(c3ccsc3)OC=C2C1=O (stereo not drawn),12.6%,?,0.0,-4.6%,?,-15.1%,i,-0.7%
O=C(O)c1ccc(-n2nncc2-c2ccccc2)cc1,7.8%,13.8%,1.8,-7.5%,-3.8%,-5.2%,-20.1%,-3.3%
CCC(=O)N1CCC1(C)C(=O)Nc1ncc(C)s1 (stereo not drawn),22.6%,14.1%,0.3,3.2%,-11.5%,3.6%,-1.0%,-2.3%
N#Cc1ccc(OCC(=O)Nc2nc(-c3ccncc3)cs2)cc1,-5.9%,13.6%,-0.3,4.0%,-6.6%,1.0%,-11.4%,-0.2%
O=C(OCc1cc(=O)oc2cc(O)ccc12)c1cc(S(=O)(=O)N2CCOCC2)ccc1F,209.3%[activator],-11.5%,0.2,351.8%[activator],-0.9%,-0.2%,-16.1%,23.5%
CC1(C)C(=O)Nc2ccccc2N1C(=O)CSc1ncccn1,10.0%,-14.3%,0.6,0.4%,-12.1%,11.9%,-26.4%,-0.1%
COc1ccc(C(=O)c2sc(Nc3ccccc3)nc2C)cc1,?,-18.9%,0.2,-13.9%,0.3%,11.4%,i,27.7%
O=C(Nc1nnc(SCCN2CCOCC2)s1)C1CC(=O)N(c2ccc(F)cc2)C1 (stereo not drawn),21.9%,-21.9%,1.6,4.3%,-28.1%,13.4%,-19.1%,4.4%
O=C(NC1=NCCS1)C1CCN(S(=O)(=O)c2cc([N+](=O)[O-])ccc2Cl)CC1,1.7%,?,2.6,1.5%,-28.1%,-4.1%,-32.9%,-1.0%
CCCOc1cccc(C2/C(=C(/O)c3ccc(F)cc3)C(=O)C(=O)N2CCN(C)C)c1 (stereo not drawn),1.4%,4.5%,4.9,-1.7%,?,-7.0%,i,-0.2%
COCCn1c(=O)[nH]c2cc(C(=O)NCC3CCCO3)ccc2c1=O (stereo not drawn),2.2%,-12.0%,-2.2,58.8%,-13.2%,4.2%,-5.0%[57.5 µM],-5.5%
CCn1c(SCC(=O)Nc2ccc(C(=O)OC)cc2)nnc1-c1cccs1,0.0%,13.9%,-3.3,-20.1%,-0.7%,-0.5%,-9.1%[57.5 µM],1.8%
O=c1cc(O)c2sc(Nc3ccc(Cl)c(F)c3)nc2[nH]1,-0.5%,-3.5%,-2.7,-8.2%,-3.3%,-2.0%,-5.3%,12.9%
CCCC(C)NC(=O)c1c2c(nc3ccccc13)CCC2 (stereo not drawn),16.5%,3.9%,-4.0,6.0%,-11.3%,-8.7%,-18.8%,0.8%
CC1=CCC(C(=O)O)C(C(=O)Nc2nc3ccc(S(C)(=O)=O)cc3s2)C1 (stereo not drawn),15.2%,1.6%,-2.1,8.0%,-11.7%,3.9%,-9.0%[57.5 µM],1.7%
CCCc1cc(=O)n(-c2nc3ccccc3s2)[nH]1,3.1%,10.3%,4.9,1.1%,-7.9%,0.6%,i,-1.9%
Cc1cc2c(cc1C)-n1nnnc1C(N1CCCC1)C(=O)N2 (stereo not drawn),-10.8%,-5.8%,0.0,-10.8%,-6.6%,14.6%,i,/
O=C(OCc1cc(=O)n2c(n1)sc1ccccc12)c1ccc(O)cc1O,11.4%,1.2%,0.1,0.7%,-29.2%,-3.0%,-88.5%[inhibitor],1.9%
CCc1cc(C(=O)c2ccc(OC)cc2)c(NC(=O)COCC(=O)O)s1,11.7%,16.2%,0.0,0.5%,-7.9%,-8.1%,-19.9%,-7.7%
CC(C)c1nnc(NC(=O)CCC(=O)NCCc2ccccc2)s1,7.0%,5.0%,0.5,-1.3%,-8.5%,-5.4%,i,-4.5%
O=C1Nc2ccccc2Oc2cc([N+](=O)[O-])ccc21,47.8%[activator],1.9%,-0.6,-5.9%,1.3%,9.3%,-6.3%,15.1%
NS(=O)(=O)c1ccc(CCNC(=O)Cc2ccc(S(=O)(=O)N3CCCC3)s2)cc1,4.6%,?,1.2,-2.4%,-7.8%,10.0%,i,5.7%
COCCn1c(=S)[nH]c2cc(C(=O)NCc3ccc(F)cc3)ccc2c1=O,24.1%,6.5%,0.0,-7.8%,-1.5%,2.8%,i,-3.0%
CN(CC(=O)Nc1cccc(F)c1)C(=O)c1cccnc1Sc1ccccc1,8.7%,-11.2%,1.8,6.8%,-5.1%,24.2%,i,-3.9%
CCC(C)Nc1nc(-c2c[nH]c3ccccc23)cs1 (stereo not drawn),-25.3%,-19.9%,3.0,7.4%,-21.6%,-7.6%,-8.4%,0.2%
CCCCNC(=O)c1nc(C2CCN(S(=O)(=O)c3csc(C(=O)O)c3)CC2)oc1-c1ccccc1,10.9%,5.4%,1.0,-9.7%,-4.5%,-9.7%,-18.0%,3.1%
Cc1nn(Cc2ccc(F)cc2)c2sc(C(=O)Nc3ccccc3N3CCOCC3)cc12,-22.4%,-8.6%,0.3,-21.3%,0.0%,-6.0%,i,-0.1%
Cc1ccc2c(CC(=O)OCc3cc(=O)n4c(n3)sc3ccccc34)coc2c1,4.2%,?,0.8,-11.4%,?,-14.7%,i,-30.2%[inhibitor]
COc1ccc(NC(=O)c2noc3c2CCCCC3)cc1,-18.7%,-29.9%,-3.0,-2.1%,?,4.8%,-38.7%[inhibitor],10.1%

PLK1 PBD block, hit marks shown above.
molecule,GLP1R inv ag,EPAC1 antagonist,PLK1 PBD block,EPAC1 ag,PTHR1 agonist,GLP1R ag
COc1ccc(OCCCC(=O)Nc2nc(-c3ccccn3)cs2)cc1,?,-13.0%,26.7µM*,-1.1%,-28.4%,3.0%
Cc1ccc(-c2ccnc3nc(-n4cccc4)nn23)o1,31.6%,-7.3%,4.74µM*,-2.0%,-17.5%,7.8%

Continued.
Compound,GLP1R inv ag,EPAC1 antagonist,IL2 activator,GLP1R cytotox,PLK1 PBD block,EPAC1 ag,PTHR1 agonist,GLP1R ag
CCc1cc(C(=O)c2ccc(OC)cc2)c(NC(=O)CC(C)(C)CC(=O)O)s1,13.2%,-8.3%,-2.0,-11.2%,?,-21.3%,i,1.8%
CCCCC1=CC2=CC(=O)C(C)(OC(=O)CCc3ccccc3)C(=O)C2=CO1 (stereo not drawn),17.1%,?,0.6,2.1%,?,-16.7%,i,-2.4%
CCOC(=O)N1CCN(C(=O)CSCC(=O)N=c2sc3cc(OC)ccc3n2C)CC1,34.5%[activator],-2.7%,-1.9,4.0%,26.7µM*,-8.7%,-22.3%,4.4%
COc1ccc(-c2cnc3c(NC(C)=O)cc(-c4ccccc4OC)cn23)cc1OC,?,-12.4%,-0.4,?,-16.5%,8.2%,-26.1%,?
O=C(Nc1ccc(Cl)c([N+](=O)[O-])c1)c1cnccn1,10.1%,-20.0%,-3.6,3.6%,-3.6%,1.5%,-33.2%[inhibitor],-1.6%
COc1ccc(CC2(CO)CCN(Cc3ccc(OC(F)(F)F)cc3)CC2)cc1,?,-4.4%,-3.0,?,-14.3%,-12.6%,-25.2%,11.8%
